Source: PubChem BioAssay (National Center for Advancing Translational Sciences (NCATS))
Vaccinia Venus: vaccinia inhibition (Venus reporter); Vaccinia virus Venus reporter expression, fluorescence; Potency, µM (top dose mostly 36.5 µM), for the others: at the highest dose activity change, negative = inhibition, usual class: inhibitors; 0.46% of 330,000 active; active means well fitted inhibition curve with a large enough effect; inconclusive means small, poorly fitted or top-dose-only effect; inactive means no such curve, though single readings can be large or run the other way; tested in A549 cells; note: nearly all actives have a fitted effect of over 30% in size; inactives centre near -10
Vaccinia mCherry: inhibitors of vaccinia virus infection (mCherry reporter signal); Vaccinia virus mCherry reporter infection, fluorescence; about a quarter of the inactives have no number; Potency, µM (doses to about 36.5 µM), without a hit: top-dose activity change, negative = inhibition, usual class: inhibitors; 0.63% of 310,000 active; active = well fitted inhibition curve with a large enough effect; inconclusive = small, poorly fitted or top-dose-only effect; inactive = no such curve, though single readings can be large or run the other way; tested in A549 cells; note: nearly all actives have a fitted effect of over 35% in size; inactives centre near -10
The depositor's hits bear a star; i = inactive; ? = inconclusive; · = not tested or not shown; & = joins results of further samples; [ ] = another dose, or the depositor's remark. % is set by controls: 0 for no effect and ±100 for the full control effect; potency is the fitted concentration of half-maximal effect.

molecule	Vaccinia Venus	Vaccinia mCherry
Cc1c(C=O)c2ccccc2n1CC(=O)NCc1ccc2c(c1)OCO2	2%	-12%
CC(=O)C1=C(C)OC(N)=C(C(=O)OC(C)C)C12C(=O)Nc1ccccc12 (configuration not stated)	3%	-16%
CC1CC1C(=O)Nc1ccc(-c2ccccc2)cc1 (configuration not stated)	?	-12%
COc1cccc(CNC(=O)Cn2nc(C)n3c(cc4cc(C)ccc43)c2=O)c1OC	-2%	-14%
CC(C)C[C@H]1COc2cccc(N3CCN(Cc4ccccc4F)CC3)c2S(=O)(=O)N1	3%	13%
Cc1noc(C)c1CSCC(=O)N(C)CC(=O)Nc1ccc(F)c(F)c1F	-2%	-9%
CCOc1ccccc1NC(=O)CN(c1ccc(OC)cc1OC)S(=O)(=O)c1ccccc1[N+](=O)[O-]	-21%	?
Cc1cc(C)n(C(=O)COc2ccc([N+](=O)[O-])cc2)n1	-4%	-9%

Of the compounds above, two contain an aryl methoxy group.
molecule	Vaccinia Venus	Vaccinia mCherry
COc1cccc(CNC(=O)Cn2nc(C)n3c(cc4cc(C)ccc43)c2=O)c1OC	-2%	-14%
CCOc1ccccc1NC(=O)CN(c1ccc(OC)cc1OC)S(=O)(=O)c1ccccc1[N+](=O)[O-]	-21%	?

Continued.
molecule	Vaccinia Venus	Vaccinia mCherry
Cc1cccc(OC(C)C(=O)N2CCN(Cc3ccc4c(c3)OCO4)CC2)c1 (configuration not stated)	-11%	-13%
CN(C)/C=N/c1ncc(C(=O)c2ccc(-c3ccccc3)cc2)s1	-28%	-25%
O=C(CSCc1ccc([N+](=O)[O-])cc1)NC1CC2CCC1C2 (configuration not stated)	-10%	-17%
Cc1ccc(-n2c3nc(=O)[nH]c(=O)c-3cc3cc([N+](=O)[O-])ccc32)cc1	-30%	?
CCOc1cc(C(=O)Nc2c3c(nn2C(C)(C)C)CS(=O)C3)cc(OCC)c1OCC (configuration not stated)	-9%	-19%
Cn1c(=O)c2cc(NC(=O)Nc3cccnc3)ccc2n1Cc1cccc(C(F)(F)F)c1	-17%	?
O=C(O)CSc1cccc2cccnc12	-2%&-10%	9%&-14%
CCOC(=O)/C(=C/c1ccccc1)NC(=O)c1ccco1	-15%	-12%
COc1cc(C2NC(=O)NC(C)=C2C(=O)OCc2ccccc2)ccc1O (configuration not stated)	-11%	-12%
COc1ccccc1OCCCCCNCCO	-13%	-10%
CC1CCCN(CC(=O)Nc2ccc(S(=O)(=O)N3CCCCC3)cc2)C1 (configuration not stated)	-16%	-23%
CCOC(=O)c1ccc(NC(=O)c2cn(-c3ccccc3)nc2-c2ccc(Br)cc2)cc1	-16%	-4%
CCCSC(=O)N(CC)CC(=O)Nc1c(CC)cccc1CC	-25%	i[1.46 µM]
COc1ccc(S(=O)(=O)Cc2ccc(C(=O)N3CCN(c4cccc(C)c4C)CC3)o2)cc1	-22%	i
COC(=O)c1ccc(CNC(=O)COC(=O)CC23CC4CC(CC(Br)(C4)C2)C3)cc1	4%	-8%
COc1cccc(CNC(=O)[C@@H]2CCCN2C(=O)[C@H]2CCCCN2C(=O)c2cccs2)c1	-3%	22%

Profiles, looked up by structure. Order of screens: Vaccinia Venus | Vaccinia mCherry
CCOc1ccccc1NC(=O)CN(c1ccc(OC)cc1OC)S(=O)(=O)c1ccccc1[N+](=O)[O-] reads -21% | ?
CCOC(=O)c1ccc(NC(=O)c2cn(-c3ccccc3)nc2-c2ccc(Br)cc2)cc1 reads -16% | -4%

Additional entries
molecule	Vaccinia Venus	Vaccinia mCherry
COc1ccc(CNC(=O)C(C)Sc2ccc(C)cc2)cc1 (configuration not stated)	-7%	i
O=C(CSc1nc2ccccc2s1)NNC(=O)Nc1ccc(Cl)c(Cl)c1	-3%	-4%
CCCCNC(=O)n1c(SC)nc2ccccc21	-17%	i
O=C(CN1C(=O)c2ccccc2C1=O)Nc1cccc(S(=O)(=O)Nc2ccccc2Cl)c1	-16%	-5%
Cc1ccc(C(=O)N/N=C\c2c(C)nn(-c3ccccc3)c2Cl)cn1	-22%	-4%
CCOC(=O)c1ccc(N2C(=O)CC(N(C)Cc3ccccc3)C2=O)cc1 (configuration not stated)	-14%	-9%[1.46 µM]
COc1ccc(CCSc2n[nH]c(C(C)C)n2)cc1	-15%	-10%
CC(C)(C)n1cnc2cc(NC(=O)c3ccc(Cl)cc3)ccc21	-21%	?
CC1Sc2ccc(Cl)cc2-c2nc(N)ncc21 (configuration not stated)	-5%	-6%
CCOc1cccc2cc(-c3cn4c(n3)sc3cc(C)ccc34)c(=O)oc12	-10%	-7%
COC(=O)c1nnn(-c2ccc(Cl)c(Cl)c2)c1C(=O)OC	-8%	-7%
CCN(Cc1ccccc1)C(=O)CN1C(=O)c2ccccc2C1=O	-13%	-9%
CSC1=NCCN1S(=O)(=O)c1ccc(F)cc1	-12%	-3%
c1ccc(CSc2ncnc3c2cnn3-c2ccccc2)cc1	-2%	-9%
COC(=O)C1CCN(C(=O)COC(=O)Cn2cnnn2)CC1	-11%	i
O=C(NC(Cc1ccccc1)C(=O)O)/C(=C/c1ccc([N+](=O)[O-])cc1)NC(=O)c1ccccc1 (configuration not stated)	-7%	i
Cc1ccc(OCCNC(=O)[C@H]2O[C@@H](n3ccc(=O)[nH]c3=O)[C@H](O)[C@@H]2O)cc1C	-3%	53%[activator]
COc1ccc(NS(=O)(=O)c2cc(C)ccc2NC(=O)c2cc(C)oc2C)cc1	?	·
CN(CCO)c1ccc([N+](=O)[O-])cc1C(=O)O	3%	-8%
CCOc1cc(/C=N\Nc2nc(-c3ccc(C)cc3)c(NC(C)=O)s2)ccc1O	-8%	?
CCCCC(=O)N(c1ccc2oc(C)c(C(C)=O)c2c1)S(=O)(=O)c1ccc(F)cc1C	?	?
COC(=O)C(C)Sc1nc2ccsc2c(=O)n1Cc1ccccc1 (configuration not stated)	-8%	-8%
C/C=C(\C)c1nnc(NC(=O)C(C)C)s1	-27%	?
CCC(C)(C(=O)NC1CCCCC1)N(C(=O)CNC(=O)c1ccccc1)c1c(C)n(C)n(-c2ccccc2)c1=O (configuration not stated)	-1%	i
O=C(O)CCC(=O)N1CCc2cc(S(=O)(=O)N3CCN(c4ccc(F)cc4)CC3)ccc21	-17%	i
CNc1ccc(C=O)cc1Cl	-6%	-9%
Cc1ccc(C)c(CSc2cn(CC(=O)N3CCCCCC3)c3ccccc23)c1	-12%	-14%
O=C(CSc1ncccn1)NC(=O)Cc1ccccc1	-2%	-13%
Cc1cc(C)cc(NC(=O)CSc2nc3sc4c(c3c(=O)[nH]2)CCCC4)c1	-1%	-11%
Cc1ccc(N(CC(=O)Nc2ccc(F)cc2)S(=O)(=O)N2CCCC2)cc1	-13%	i
COc1cccc2c1C13CC[N+]4(CC5CC5)CO[C@]1(CCC(=O)C3)C4C2	-12%	-13%
COc1ccc(N2CCN(c3ccc([N+](=O)[O-])cc3Cl)CC2)cc1	-13%	-15%

Among those listed so far, two contain bromine:
molecule	Vaccinia Venus	Vaccinia mCherry
CCOC(=O)c1ccc(NC(=O)c2cn(-c3ccccc3)nc2-c2ccc(Br)cc2)cc1	-16%	-4%
COC(=O)c1ccc(CNC(=O)COC(=O)CC23CC4CC(CC(Br)(C4)C2)C3)cc1	4%	-8%

(next part)
molecule	Vaccinia Venus	Vaccinia mCherry
CC1CCc2sc(C(=O)NNS(=O)(=O)c3ccc(F)c(F)c3F)cc2C1 (configuration not stated)	-6%	i
COc1cc(C2c3c(-c4cc(Cl)c(C)cc4O)n[nH]c3C(=O)N2Cc2cccnc2)ccc1O (configuration not stated)	-22%	-33%
CC(=O)c1c(C)[nH]c(C(=O)COC(=O)c2cccs2)c1C	-16%	-7%
Cc1ccc(S(=O)(=O)N(CC(=O)NCc2ccncc2)Cc2ccccc2F)cc1	-10%	3%
O=C(COc1ccc2c3c(c(=O)oc2c1)CCC3)c1ccc2c(c1)OCO2	-3%	-13%
COc1cccc(CNC(=O)c2c(OC)cc(=O)n3c2CCN(C(=O)c2cc(F)cc(F)c2)CC3)c1	0%	-10%
C#CCOC(=O)c1ccccc1C(=O)OCC#C	-1%	·
CC(=O)Nc1cccc(NS(=O)(=O)c2c(C)noc2C)c1	?	6.3µM*

The list goes on.
Molecule	Vaccinia Venus	Vaccinia mCherry
O=C(c1ccc2ccccc2n1)N1CCN(c2ccccn2)CC1	-6%	-17%
CCN(CC)S(=O)(=O)c1cccc(C(=O)N/N=C/c2cc(OC)c(O)c(OC)c2)c1	-14%	-2%
O=C(CCOc1ccccc1)Nc1cccc([N+](=O)[O-])c1	-3%	-7%
CC1CC2=C(C(=O)O1)C(c1ccc(Cl)cc1)Nc1ccccc1N2 (configuration not stated)	-12%	-7%
Cn1c(=O)[nH]c(=O)c2c1nc(Br)n2CCC(=O)c1ccccc1	-9%	-13%
CCOC(=O)C1(CC2CC2)CCN(Cc2ccc(OC)cc2F)CC1	2%	-18%
C=CCn1c(C2CCCCC2)n[nH]c1=S	-1%	i
O=C(Nc1ncccn1)c1cc(-c2ccc(F)cc2)nc2ccccc12	-11%	-20%
CC(Sc1nncn1C)C(=O)Nc1ccc(Cl)cn1 (configuration not stated)	-5%	i
O=C(NNC(=O)C1C2C=CC(C2)C1C(=O)O)c1ccccc1 (configuration not stated)	0%	i
O=C(Cc1ccc(-n2c(=O)c3ccccc3n(CC(=O)Nc3ccc(F)cc3F)c2=O)cc1)NCc1ccco1	0%[7.34 µM]	11%[7.34 µM]
COc1cccc(-c2cnc3c(NC=O)cc(-c4ccc(OC)cc4OC)cn23)c1	?	?
COc1ccc(OCC(O)Cn2c(Nc3cccc(C)c3)nc3c2c(=O)n(C)c(=O)n3C)cc1 (configuration not stated)	-11%	-24%
CN(C)/C=N/c1nc2nccc(-c3ccccn3)n2n1	1%	-6%
O=C(CSc1ncnc2c1oc1ccccc12)Nc1cccc(C(F)(F)F)c1	?	-22%
Cc1ccc(S(=O)(=O)N/N=C/c2ccccc2O)cc1[N+](=O)[O-]	7%	i
Cc1ccc(NC(=O)CC2CS(=O)(=O)CC2CC(=O)Nc2ccc(C)c(C)c2)cc1C (configuration not stated)	-27%	-29%
O=C1S/C(=C\c2ccc(N3CCOCC3)o2)C(=O)N1Cc1c(F)cccc1Cl	20%	-7%
CC(C)c1ccc(/C=N/NC(=O)CN(c2cccc(Cl)c2Cl)S(C)(=O)=O)cc1	?	·
COc1ccc(CCNC(=O)CN2CCOc3ccccc32)cc1OC	9%	-1%
CC1(C)C2C/C(=N\O)C(C)(/[N+]([O-])=C/c3cccc([N+](=O)[O-])c3)CC21 (configuration not stated)	8%	5%
CNC(=O)/C=C1\NC(C)(C)Cc2c1ccc1ccccc21	?	·
Cn1ccnc1C(=O)c1ccc(N)cc1	-7%	i
Oc1ccc(Cc2ncc(C(F)(F)F)cc2Cl)cc1	-18%	-25%
CCOC(=O)c1c(NC(=S)NC(C)=O)sc(C)c1C	-7%	-16%
O=C(Nc1ncc2c(n1)CC(c1ccc(Cl)cc1)CC2=O)c1ccco1 (configuration not stated)	-2%	1%
CC(C)(C)c1nnc(NC(=O)CS(=O)(=O)Cc2ccccc2)s1	-3%	i
O=C(NC1CCCCC1)[C@H](CSCc1ccccc1)N1Cc2ccccc2C1=O	-14%	19%
CC(C)OC(=O)CN1CCN(C2c3ccccc3-c3ccccc32)CC1	-8%	i
CN(Cc1ccc(Cl)cc1)C(CCc1ccccc1)C(=O)NC1CCCCC1 (configuration not stated)	-5%	i
O=S(=O)(c1cccc2cccnc12)N1CCN(c2ccccc2)CC1	-10%	?
CC(=O)Nc1ccc(S(=O)(=O)NCC(=O)NC(C)c2ccc(S(N)(=O)=O)cc2)cc1 (configuration not stated)	-11%	i
C/C(=N\NC(=O)c1cccs1)C(C)(C)C	-14%	-21%
CCOc1ccccc1NC(=O)C(C)Sc1nc2c(c(=O)[nH]1)CCCC2 (configuration not stated)	4%	-12%
COc1ccc(CCNC(=O)Cc2ccc(C)cc2)cc1OC	?	?
NC(N)=NC(=S)Nc1ccc(Cl)cc1	-4%	-26%
O=[N+]([O-])c1ccccc1OCCOc1ccccc1[N+](=O)[O-]	-2%	-15%
CCOc1ccccc1C(=O)OCC(=O)NCCNC(=O)COC(=O)c1ccccc1OCC	-8%	-6%
CCOC(=O)c1c(NC(=O)Cc2coc3ccc(CC)cc23)sc2c1CCC2	-1%	0%
O=[N+]([O-])c1ccc(NCCCc2ccccc2)cc1	-23%	-11%
O=C(Oc1ccc(C(=S)N2CCCCC2)cc1)c1ccccc1F	-2%	i
Cn1cccc1Cc1nnc(SCC(=O)N2CCCc3ccccc32)n1-c1ccc(F)cc1	6%	-3%
CCn1cc(C(=O)NCCc2ccc(C)cc2)c(=O)c2cc(S(=O)(=O)N(C)C)ccc21	-23%	i
CCCCOc1ccccc1NC(=O)Cn1c(-c2cncs2)nc2ccccc21	-10%	-1%
CCCCOc1ccc(N=Nc2ccc(N)nc2N)cn1	-14%	-6%
O=C(OCCOc1cccc(Cl)c1)c1ccc2ncsc2c1	0%	13%
CCc1ccc(S(=O)(=O)N2CCN(C(=O)C3CCN(C(C)=O)CC3)CC2)cc1	-20%	0%
O=C(NCCCNC(=O)c1ccco1)c1ccc(F)cc1	4%	-12%
COc1cc(C(c2c(C)[nH][nH]c2=O)c2c(C)[nH][nH]c2=O)ccc1OC(=O)c1cccc([N+](=O)[O-])c1	-8%	·
COC(=O)c1c(C)cc(O)c(C)c1O	-10%	-3%
